Measles inh = inhibitors of measles virus growth in infected cells; infected Vero cells, GFP fluorescence, 64 h; hits give low values; z-score (no concentration beside the values); 0.1% of 33,000 active; AID 745;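 active means z-score under -3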;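 further: score is relative to mean and SD of the compound wells of a plate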
Active calls of the source: *. Some of the compounds tested, so the mix of outcomes need not match the whole.

entry	SMILES	Measles inh
1	Cc1nn(Cc2ccc(F)cc2)c(C)c1NC(=O)CCS(=O)(=O)c1nc(-c2ccc3c(c2)OCO3)cc(C(F)(F)F)n1	2.64
2	CCC(=O)N1CCc2cc(S(=O)(=O)CCC(=O)N(CC)c3ccc(C)c(C)c3)ccc21	-0.48
3	COc1ccc(C(=O)NC2CCCCC2)cc1S(=O)(=O)N1CCOCC1	0.22
4	CCCCNC(=O)c1sc2ncn(CC(=O)N3CCCCC3)c(=O)c2c1C	-0.85
5	CC(C)CCN1CC(C(=O)N2CCN(c3ccccc3F)CC2)CC1=O (configuration not stated)	0.44
6	Cc1cc(O)ccc1C1CCCCC1	-0.51
7	C=CCn1c(-c2ccc(C)cc2)csc1=Nc1ccc(Cl)cc1	1.07
8	COc1cccc(N2CCN(C(=O)Cn3c(=O)[nH]c4ccccc4c3=O)CC2)c1	0.63
9	CCOC(=O)C1C(=O)C=C(c2cccs2)CC1c1cc(OC)ccc1OC (configuration not stated)	1.21
10	Cc1cccn2c(=O)c3cc(C(=O)Nc4ccc5c(c4)OCCO5)sc3nc12	-1.32
11	COc1ccc(C2Nc3ccc4ncccc4c3C3=C2C(=O)CCC3)cc1 (configuration not stated)	0.26
12	Cc1n[nH]c(C)c1N1C(=O)c2cc([N+](=O)[O-])cc3cc([N+](=O)[O-])cc(c23)C1=O	-0.28
13	Cc1ccc2ccc(C(Nc3ccccn3)c3ccc(C)s3)c(O)c2n1 (configuration not stated)	-0.84
14	Clc1ccccc1CSc1nncn1-c1ccccc1	0.68
15	O=C(Nc1ccccc1Cl)c1ccc([N+](=O)[O-])s1	-1.51
16	O=[N+]([O-])c1ccc(N2CCN(S(=O)(=O)Cc3ccccc3)CC2)cc1NCCc1ccccc1	-0.56
17	O=C(Nc1nc2c(s1)CCCC2)c1ccc(-c2ccccc2)cc1	-1.65
18	CCc1ccccc1OCCc1c(C)n[nH]c1C	-0.14
19	O=C(Oc1cccc2ccccc12)C1C2C=CC(C2)C1C(=O)Oc1cccc2ccccc12 (configuration not stated)	-0.01
20	Cc1cc(SCC(=O)O)nc2ccccc12	-0.33
21	CCC(=O)N1c2ccc(S(=O)(=O)CCC(=O)Nc3ccc(Br)cc3)cc2CC1C (configuration not stated)	-0.96
22	COCCNC(=O)c1sc2ncn(CC(=O)N3CCCCC3C)c(=O)c2c1C (configuration not stated)	-0.47
23	Cc1nnc(Nc2ccccc2O)c2ccccc12	-0.59
24	COCCn1c(=O)[nH]c2cc(C(=O)NC3CCN(Cc4ccccc4)CC3)ccc2c1=O	-1.39
25	O=C(Nc1cccc(F)c1)C1CCCN(S(=O)(=O)c2cccc3nsnc23)C1 (configuration not stated)	1.87

Entries from the list above containing an aryl thioether with sulfur outside any ring, in the order listed:
entry	SMILES	Measles inh
14	Clc1ccccc1CSc1nncn1-c1ccccc1	0.68
20	Cc1cc(SCC(=O)O)nc2ccccc12	-0.33

Later entries
entry	SMILES	Measles inh
26	O=C(Nc1c(C(=O)Nc2ccc(Br)cc2)cnn1-c1ccccc1)c1ccccc1Cl	0.52
27	Cc1cc(C)c(Cc2c(C)nc3c(C(=O)NC4CCCCC4)cnn3c2C)c(C)c1	0.24
28	CCCCNC(=O)C1CCN(S(=O)(=O)N2CCCCCC2)CC1	1.69
29	Cc1cc(C)c(Cn2c(=O)n(CCC(=O)N3CCc4ccccc4C3)c(=O)c3ccccc32)c(C)c1	-0.37
30	O=c1cccccc1Nc1ccccc1	0.62
31	CC1CCCC(NC(=O)c2ccc(CSCc3ccc(Cl)cc3)o2)C1C (configuration not stated)	-0.81
32	CC(NC(=O)c1ccc(N(C)S(=O)(=O)c2ccccc2)cc1)c1ccccc1 (configuration not stated)	0.02
33	Cc1ccc2[nH]c3nc(=S)[nH]nc3c2c1	-0.75
34	CCc1noc(C)c1C(=O)N1CC(C)OC(C)C1 (configuration not stated)	-0.49
35	Cc1ccc(S(=O)(=O)Nc2cccc(C(=O)O)c2)cc1	0.43
36	COc1ccc(C2C(C(=O)N(C)c3ccc(C(C)C)cc3)c3cc(OC)c(OC)cc3C(=O)N2C)cc1 (configuration not stated)	-0.97
37	Cc1cc([N+](=O)[O-])cc2c1NC(=O)C2(O)N1CCCCCC1 (configuration not stated)	-0.55
38	Cc1cc(Cl)ccc1OCCCC(=O)NCc1cccnc1	1.7
39	Cc1ccccc1Cn1c(NCc2ccco2)nc2c1c(=O)n(C)c(=O)n2C	0.33
40	Cc1c(C(=O)Nc2ccc(S(N)(=O)=O)cc2)cccc1[N+](=O)[O-]	-0.41
41	O=C(c1ccccc1)N1N=C(C(F)(F)F)CC1(O)C(F)(F)F (configuration not stated)	0.42
42	CCc1ccc(S(=O)(=O)N2CCSC2c2cc(Br)ccc2OC)cc1 (configuration not stated)	0.8
43	Cc1cc(C(=O)Nc2cc(Br)ccc2O)no1	0.23
44	Cc1cc(C)c(S(=O)(=O)N2CCN(c3ccccn3)CC2)c(C)c1	-0.47
45	Cc1ccc2c(c1)C(c1ccccc1)N(C(=O)c1ccc(Br)cc1)CC(=O)N2 (configuration not stated)	-1.11
46	COc1ccc(CNCCC(c2ccc(F)cc2)C2CCOC(C)(C)C2)cc1 (configuration not stated)	-2.12
47	O=C(COC(=O)c1c2c(nc3ccccc13)CCCC2)c1ccc([N+](=O)[O-])cc1	-0.49
48	CCOC(=O)c1cccc(NC(=O)c2ccccc2OCC)c1	-0.8
49	CCN1C(=O)C(O)(CC(=O)c2ccc3c4c(cccc24)CC3)c2ccccc21 (configuration not stated)	-0.66
50	Cn1c(=O)c(C(=O)Nc2ccccc2F)c(O)c2ccccc21	-0.88
51	CC(C)C(=O)N1N=C(c2cccc(NS(C)(=O)=O)c2)CC1c1ccco1 (configuration not stated)	0.05
52	COc1ccccc1C1Oc2ccccc2C2CC(c3ccccc3)=NN21 (configuration not stated)	-1.17
53	CC(=O)N1CCc2cc(S(=O)(=O)CCC(=O)Nc3cc(C)ccc3C)ccc21	1.22
54	COC(=O)C1=CN(C23CC4CC(CC(C4)C2)C3)C=C(C(=O)OC)C1c1ccc(Cl)s1	0.2
55	Cc1ccc(S(=O)(=O)NC(C)(C)CSc2ncccn2)cc1	0.7
56	CCOc1ccc(C(=O)Nc2cccc(C)n2)cc1OCC	1.09
57	CC(=O)c1sc(NC(=O)c2cc(=O)c3ccccc3o2)nc1C	2.07
58	N=c1ccn(CC(=O)N2CCCc3ccccc32)c2ccccc12	0.83
59	O=C1Nc2ccccc2C(O)(C(=O)NC2CCCCCCC2)N1c1ccc(Cl)cc1 (configuration not stated)	2.77
60	CN(CC(=O)NCCC1=CCCCC1)S(=O)(=O)c1ccc2c(c1)CCC(=O)N2	-1.54
61	Cc1c(Cl)c([N+](=O)[O-])nn1CCCC(=O)Nc1sc2c(c1C(N)=O)CCCC2	-0.57
62	Cc1[nH]c2ccccc2c1C(Nc1ccccn1)c1cccs1 (configuration not stated)	-1.56
63	CC1=C(C(=O)OCC(C)C)C(c2cccc(O)c2)NC(=O)N1 (configuration not stated)	1.14
64	O=C(CN1C(=O)CSc2ccc(S(=O)(=O)N3CCCC3)cc21)NCCc1ccccc1	-0.87
65	O=c1c2c3c(sc2n(Cc2cccc([N+](=O)[O-])c2)c(=O)n1-c1ccccc1)CCC3	-0.61
66	N#CCSc1nc2ccccc2c(=O)n1CCN1CCOCC1	0.34
67	CCN(CC)C(=O)Cn1c(C)cc2ccccc2c1=O	0.01
68	OCCCc1nc2n(n1)C(c1ccccc1)C=C(c1ccc(F)cc1)N2 (configuration not stated)	-0.25
69	O=C(Nc1ccc(Cl)cn1)C1(S(=O)(=O)c2ccc(Cl)cc2)CC1	0.59
70	CCc1ccc(N=c2oc3c(C)ncc(COC(C)=O)c3cc2C(=O)Nc2ccc(C)cc2)cc1	-0.2
71	O=C(O)C1C2C=CC(C2)C1C(=O)NCc1ccccn1 (configuration not stated)	0.04
72	COC(=O)C1=CN(c2ccc(F)cc2)C=C(C(=O)OC)C1c1cccc([N+](=O)[O-])c1	-0.52
73	COc1ccc(NC(=O)c2ccc(NS(=O)(=O)c3c(C)n[nH]c3C)cc2)cc1Cl	-0.77
74	O=C1C2C(C(=O)N1C1CCCCC1)C1C=CC2C12CC2 (configuration not stated)	-1.22
75	CCC(CC)C(=O)Nc1c2c(nn1-c1ccc(C)cc1)CS(=O)(=O)C2	0.68

Copied from the list.
cpd 51 @ Measles inh = 0.05
cpd 63 @ Measles inh = 1.14

Additional structures
entry	SMILES	Measles inh
76	Cc1ccc(CC2C(=O)N(c3cc(Cl)ccn3)C(=O)C2C)cc1 (configuration not stated)	-0.55
77	COC(=O)C1=C(NC(=O)c2ccc(Cl)cc2)CCS1	1.04
78	Cc1nc2c(oc3nc(-c4ccoc4)c4c(c32)CC(C)(C)OC4)c(-c2ccc(Br)cc2)c1C(=O)O	-1.3
79	CC(=O)C1C(c2ccc(Cl)cc2)c2c(noc2C)CC1(C)O (configuration not stated)	0.13
80	COc1ccc(C2C(C(=O)OC(C)C)=C(C)NC3=C2C(=O)CC(c2ccc(Cl)cc2)C3)c(OC)c1 (configuration not stated)	-0.99
81	O=C(NCc1ccc(F)cc1)c1ccc2c(=O)n(C3CCCC3)c(=S)[nH]c2c1	-0.53
82	CCn1cnc2sc(C(=O)Nc3cc(C)cc(C)c3)c(C)c2c1=O	0.69
83	CCc1ccc(N2C(=O)CN(Cc3cccs3)C2=S)cc1	0.13
84	O=C(Nc1ccc(NS(=O)(=O)c2ccc(Br)c(C(=O)Nc3ccccc3)c2)cc1)c1ccccc1	-0.79
85	O=C(O)c1cccc(NS(=O)(=O)c2ccc(NC(=O)c3ccco3)cc2)c1	-0.94
86	CCOC(=O)C1C(=O)C=C(c2cccc(OC)c2)CC1c1ccc(C(C)C)cc1 (configuration not stated)	-0.39
87	O=C(Nc1cccc(F)c1)C1CCC(CNS(=O)(=O)c2ccc(Br)s2)CC1 (configuration not stated)	-0.51
88	NC(=O)c1cc2c(ccc3ccccc32)oc1=Nc1ccccc1F	-1.29
89	Cc1ccc2c(c1)c(=O)c1ccccc1n2CC(=O)N1CCC(C)CC1	0.11
90	CCCn1c(=S)[nH]c2cc(C(=O)NCCC3=CCCCC3)ccc2c1=O	-0.27
91	Cc1sc(NC(=O)C2c3ccccc3Oc3ccccc32)c(C(N)=O)c1C	0.83
92	COc1ccc2nc3sc(C(=O)Nc4cccc([N+](=O)[O-])c4C)cc3cc2c1	1.16
93	CCCn1cc(S(=O)(=O)CC(=O)Nc2cc(C(F)(F)F)ccc2Cl)c2ccccc21	-1.47
94	CSC1CCCCC1(O)CSc1nc2ccccc2o1 (configuration not stated)	0.2
95	O=C(NC1CCCCCCC1)c1ccc(CNS(=O)(=O)c2ccc(Br)cc2)cc1	-2.31
96	Cc1cccc2nc(Cn3c(=O)n(CCCC(=O)NCc4ccc5c(c4)OCO5)c(=O)c4sccc43)cc(=O)n12	0.29
97	CC1=C(C(=O)OC(C)C)C(c2ccc([N+](=O)[O-])cc2)C2=C(CCCC2=O)N1 (configuration not stated)	-1.06
98	CCN(CP(=O)(O)C1CCCCC1O)C(C)=O (configuration not stated)	1.07
99	NC(=O)c1ccc(NC(=O)CN2CCN(Cc3ccccc3)CC2)cc1	-0.69
100	COc1cc(N)ccc1-n1cnnn1	-0.58

Among those listed so far, these have a COOH group.
entry	SMILES	Measles inh
20	Cc1cc(SCC(=O)O)nc2ccccc12	-0.33
35	Cc1ccc(S(=O)(=O)Nc2cccc(C(=O)O)c2)cc1	0.43
71	O=C(O)C1C2C=CC(C2)C1C(=O)NCc1ccccn1 (configuration not stated)	0.04
78	Cc1nc2c(oc3nc(-c4ccoc4)c4c(c32)CC(C)(C)OC4)c(-c2ccc(Br)cc2)c1C(=O)O	-1.3
85	O=C(O)c1cccc(NS(=O)(=O)c2ccc(NC(=O)c3ccco3)cc2)c1	-0.94

(listing goes on)
entry	SMILES	Measles inh
101	O=C(CCCCCNc1nc(=S)[nH]c2ccccc12)N1CCN(c2ccc(Cl)cc2)CC1	1.72
102	O=C(c1ccc2c(=O)n(Cc3cccc(Br)c3)c(=S)[nH]c2c1)N1CCc2ccccc2C1	-0.56
103	CCOc1ccc(Sc2cc(C(=O)NCc3cccc(OC)c3)c3ccccc3n2)cc1	1.34
104	CN(C)CCNC(=O)c1cn(C)c(=O)c2c1c1ccccc1n2C	-0.45
105	CC(=O)c1sc(Nc2ccccc2)nc1C	2.08
106	CCCCN(C(=O)NC(=O)Nc1ccccc1C)S(C)(=O)=O	-0.38
107	CCN(CC)c1ncnc2scc(C3COc4ccccc4O3)c12 (configuration not stated)	0.21
108	CCOc1ccccc1N(C)C(=O)c1nn(-c2cccc(OC)c2)c(=O)c2ccccc12	-0.35
109	Cc1ccc(NC(=O)C(=O)NCc2ccncc2)cc1C	-0.31
110	COc1ccc(C2=NN(S(C)(=O)=O)C(c3ccccc3Cl)C2)cc1OC (configuration not stated)	7.44
111	COc1ccccc1OCCSc1nc2ccccc2c(=O)[nH]1	2.52
112	C#CC1(O)CC(C)(C)NC(C)(C)C1	0.21
113	CCOC(=O)c1c(NC(=O)C(C)(C)C)sc(C(=O)Nc2ccc(C)c(Cl)c2)c1C	-1.24
114	COc1cc(C2/C(=C(\O)c3ccc(Cl)cc3)C(=O)C(=O)N2Cc2cccnc2)ccc1O (configuration not stated)	0.55
115	O=C1OC(Nc2cccc(Cl)c2)c2ccccc21 (configuration not stated)	0.01
116	CC(C)CCNC(=O)c1ccc(CSCc2ccc(Cl)cc2)o1	-0.05
117	CCCCCOC(=O)C1=C(C)NC2=C(C(=O)CC(C)(C)C2)C1c1ccc(OCC)cc1 (configuration not stated)	0.4
118	O=c1c2c(nc3c(-c4ccccc4)c(-c4ccccc4)[nH]n13)CCCC2	0.7
119	CC(C)OCCCNC(=O)CCN1C(=O)COc2ccccc21	1.06
120	NC(=O)c1cc(S(=O)(=O)N2CCOCC2)ccc1Cl	2.1

2 entries from above in another layout.
(105) CC(=O)c1sc(Nc2ccccc2)nc1C
- Measles inh = 2.08

(110) COc1ccc(C2=NN(S(C)(=O)=O)C(c3ccccc3Cl)C2)cc1OC (configuration not stated)
- Measles inh = 7.44

High-throughput results from PubChem.
